BJeLR viability: MLPCN primary cell-based screen for lethality selective to Ras in HRASV12 cells; BJeLR (HRASV12) viability, CellTiter-Glo ATP luminescence, 48 h; reference of the scale not given here; inhibition, % (no concentration beside the values); 300,000 tested, 0.17% active; AID 1554, 2009;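 active = replicate mean above 50%; inconclusive = above 50% but judged a plate artefact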;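 note: 50 nL library stock added to about 25 µL; numbers are from one replicate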
Mtb hypoxia inh: PubChem AID 1159583. M. tuberculosis hypoxia-regulated fluorescent reporter, fluorescence. fluorescence inhibition, % (concentration not given with the values). 300,000 tested, 0.1% active;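 active = 35 to 45% if threefold the growth effect, above 45% if 1.5-fold the growth effect; inactive = the rest, general growth blockers included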;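 note: wells of about 50 µL received 100 nL stock; 0% = vehicle wells and 100% = reference inhibitor wells; whole bacteria with a GFP reporter of the hypoxia response; strong numbers were not always called active; many hits fall short of the cut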
PrP UTR inh: inhibition of PrP 5' UTR reporter expression; cell-based PrP 5' UTR mRNA reporter, plate reader; 340,000 tested, 0.35% active; inhibition, % (test concentration not listed); AID 488862, 2010;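 active = every replicate at 50% or more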;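 note: 0 = median of the neutral control wells; tested in H4 reporter cells; numbers are from one replicate; inactives centre near -14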
ugtP null kill: growth inhibition of ugtP-null S. aureus, primary screen, RN4220 ugtP deletion, OD600 | 16 h; some inactives read as strong as hits | growth inhibition, % (test concentration not listed) | 330,000 tested, 0.54% active;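 active = z-score under -3 and OD600 up to 0.15 on both plates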;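 note: plate controls were untreated wells for no effect and antibiotic for full effect; wells of about 80 µL received 100 nL stock; the first replicate is given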
Bead autofluor: compound fluorescence in toxin protease inhibitor counterscreen. AID 624483. fluorescence intensity (concentration not given with the values). compound autofluorescence counterscreen, microsphere flow cytometry; hits give high values. 360,000 tested, 3.1% active;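 active = at least 3 SD above the mean of all compounds, about 16000 in these data; inconclusive = too few beads counted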;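 note: 100 nL of 1 mM stock went into each well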
Sa RN4220 lethal: growth inhibition of S. aureus RN4220, primary screen, OD600 | 16 h | inhibition, % (concentration not given with the values) | 330,000 tested, 0.33% active | AID 1259311, 2017;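 active = z-score of -3 or lower and OD600 up to 0.18 on both plates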;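 note: plate controls were untreated cells for no effect and reference antibiotic for full effect; stock transfer was 100 nL into about 80 µL; one replicate is shown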
Mtb hypoxia inh growth: further read-out of Mtb hypoxia inh, marked with its call; growth inhibition, %; measured here: M. tuberculosis growth (absorbance);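 0% = vehicle and 100% = reference antibiotic; read after six days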
Starred values were filed as active, the others as inactive; & = joins results of further samples.

For CSC1=NC(C)(C)C=C(C=Cc2c(Cl)cccc2Cl)N1 the results were Mtb hypoxia inh 7, ugtP null kill -4, Sa RN4220 lethal 1.8 and Mtb hypoxia inh growth 14.
`COc1ccc(NS(=O)(=O)c2cc(NC(=O)CCNC(C)=O)ccc2N2CCOCC2)cc1` gave BJeLR viability 5, Mtb hypoxia inh -11, PrP UTR inh -27, ugtP null kill -1, Bead autofluor 5719, Sa RN4220 lethal -0.3 and Mtb hypoxia inh growth -8.
Screening CC(NC(=O)/C=C/c1ccc(Br)cc1)c1ccc(Cl)cc1 (configuration not stated) returned BJeLR viability -3, Mtb hypoxia inh -8, PrP UTR inh -6, ugtP null kill 6, Bead autofluor 2112, Sa RN4220 lethal -1.1 and Mtb hypoxia inh growth -11.
Screening O=C(Nc1ccc(F)cc1F)Nc1ccc(F)cc1F returned BJeLR viability 6, Mtb hypoxia inh -6, PrP UTR inh -49, ugtP null kill 8, Bead autofluor 2642, Sa RN4220 lethal 5.1 and Mtb hypoxia inh growth 9.
Screening CCOc1ccccc1NC(=O)COC(=O)C(Cc1ccccc1)NC(=O)c1ccco1 (configuration not stated) returned Mtb hypoxia inh 6, PrP UTR inh -28, ugtP null kill 1, Bead autofluor 5145, Sa RN4220 lethal 4.9 and Mtb hypoxia inh growth 2.
Screening O=[N+]([O-])c1nn(-c2ccc3c(c2)OCCO3)n(O)c1=NC1CCCCCC1 returned BJeLR viability 3, Mtb hypoxia inh 14, ugtP null kill -8, Bead autofluor 9502, Sa RN4220 lethal -2.3 and Mtb hypoxia inh growth 12.
`Nc1ncccc1OCc1cccc(C(F)(F)F)c1` gave BJeLR viability 0, Mtb hypoxia inh -4, PrP UTR inh -8, ugtP null kill -9, Bead autofluor 3103, Sa RN4220 lethal 3.7 and Mtb hypoxia inh growth -5.
Screening CCC1(c2ccccc2)NC(=O)N(CC(=O)NNC(=O)CCN2CCN(c3ccccc3)CC2)C1=O (configuration not stated) returned BJeLR viability -6, Mtb hypoxia inh -1, PrP UTR inh -7, ugtP null kill 9, Bead autofluor 4968, Sa RN4220 lethal 3.9 and Mtb hypoxia inh growth -3.
Screening CCN(CC)CCNC(=O)C(C(=O)c1ccccc1)n1ccccc1=O (configuration not stated) returned BJeLR viability -6, Mtb hypoxia inh 2, PrP UTR inh -17, ugtP null kill -4, Bead autofluor 9406, Sa RN4220 lethal 4.1 and Mtb hypoxia inh growth 13.
Screening COc1ccc(S(=O)(=O)n2cnc3ccccc32)cc1OC returned BJeLR viability -8, Mtb hypoxia inh 5, PrP UTR inh -18, ugtP null kill 4, Bead autofluor 3625, Sa RN4220 lethal 2.9 and Mtb hypoxia inh growth 2.
NC(=O)c1ccc(NC(=O)CCc2nc3ccccc3s2)cc1 was read as BJeLR viability 2, Mtb hypoxia inh 6, PrP UTR inh -22, ugtP null kill 3, Bead autofluor 3544, Sa RN4220 lethal 3.4 and Mtb hypoxia inh growth 3.
For O=C(N/N=C/c1ccco1)c1csc2c1CCCC2 the results were BJeLR viability 4, PrP UTR inh -50 and Bead autofluor 4920.
For C=CCc1cccc2cc(C(=O)N3CCN(c4ccccn4)CC3)c(=O)oc12 the results were BJeLR viability 4, Mtb hypoxia inh 7, PrP UTR inh -9, ugtP null kill 3, Bead autofluor 2116, Sa RN4220 lethal 7.2 and Mtb hypoxia inh growth -1.
Screening O=CN1CCN(S(=O)(=O)c2ccc(Cl)c(C(=O)O)c2)CC1 returned BJeLR viability -1, Mtb hypoxia inh 0, PrP UTR inh -42, ugtP null kill 4, Bead autofluor 3864, Sa RN4220 lethal 7.4 and Mtb hypoxia inh growth 0.
Screening CCOc1ccc(CCNC(=O)COC(=O)c2ccc(F)c(S(=O)(=O)N3CCOCC3)c2)cc1OCC returned BJeLR viability 4, Mtb hypoxia inh -3, PrP UTR inh -18, ugtP null kill -4, Sa RN4220 lethal -3.1 and Mtb hypoxia inh growth -8.

Part of the list above in order of molar mass, highest first:
Screening CCOc1ccc(CCNC(=O)COC(=O)c2ccc(F)c(S(=O)(=O)N3CCOCC3)c2)cc1OCC returned BJeLR viability 4, Mtb hypoxia inh -3, PrP UTR inh -18, ugtP null kill -4, Sa RN4220 lethal -3.1 and Mtb hypoxia inh growth -8.
Screening O=[N+]([O-])c1nn(-c2ccc3c(c2)OCCO3)n(O)c1=NC1CCCCCC1 returned BJeLR viability 3, Mtb hypoxia inh 14, ugtP null kill -8, Bead autofluor 9502, Sa RN4220 lethal -2.3 and Mtb hypoxia inh growth 12.
Screening COc1ccc(S(=O)(=O)n2cnc3ccccc32)cc1OC returned BJeLR viability -8, Mtb hypoxia inh 5, PrP UTR inh -18, ugtP null kill 4, Bead autofluor 3625, Sa RN4220 lethal 2.9 and Mtb hypoxia inh growth 2.

Continuation:
O=C(COC(=O)c1ccc(O)cc1O)Nc1nnc(-c2ccccc2)o1 was read as BJeLR viability 1, Mtb hypoxia inh 1, PrP UTR inh -5, ugtP null kill 0, Bead autofluor inconclusive, Sa RN4220 lethal 4.3 and Mtb hypoxia inh growth -6.
Screening Cc1nc(C(C)NC(=O)CCc2nnc(CCCc3ccccc3)o2)c(C)s1 (configuration not stated) returned BJeLR viability -2, Mtb hypoxia inh 15, PrP UTR inh -73, ugtP null kill 2, Bead autofluor 3937, Sa RN4220 lethal 6.4 and Mtb hypoxia inh growth -3.
Screening Cc1cccc(N2CN=c3sc(=Cc4ccncc4)c(=O)n3C2)c1 returned Mtb hypoxia inh 8, ugtP null kill 14, Sa RN4220 lethal 17 and Mtb hypoxia inh growth 1.
`CC12CCC(C(=O)N(CSC(=S)N/N=C\c3ccccc3O)C1=O)C2(C)C` (configuration not stated) gave BJeLR viability 2, PrP UTR inh 6 and Bead autofluor 4712.
Cc1ccc(F)cc1NCC(=O)Nc1ccc(Br)cc1 was read as BJeLR viability -21, Mtb hypoxia inh 7, PrP UTR inh -26, ugtP null kill -14, Bead autofluor 2543, Sa RN4220 lethal -10 and Mtb hypoxia inh growth 0.
`CCCCN1C(=N)N(C(CCC)CN2CCCC2CN2C(N)=NCC2Cc2ccccc2)CC1Cc1ccccc1` (configuration not stated) gave ugtP null kill 98* and Sa RN4220 lethal 82.
For COC(=O)C(Cc1ccccc1)N(Cc1ccccc1)S(=O)(=O)N(Cc1ccccc1)C(Cc1ccccc1)C(=O)OC (configuration not stated) the results were Mtb hypoxia inh 7&9, ugtP null kill -6&-4, Sa RN4220 lethal 0.2&4.9 and Mtb hypoxia inh growth 8&7.
`Cc1occc1-c1nnc(SCC(=O)NCC2CCCO2)n1C` (configuration not stated) gave BJeLR viability -17, PrP UTR inh -24, ugtP null kill 0, Bead autofluor 4865 and Sa RN4220 lethal 2.0.
For Cc1ccc(C)c(NC(=O)C2C3CCCC2C3c2ccccc2)c1 (configuration not stated) the results were BJeLR viability -6, PrP UTR inh -9, ugtP null kill 7, Bead autofluor 4183 and Sa RN4220 lethal 8.9.
`COC(=O)C(C)Nc1cccc(Br)c1` (configuration not stated) gave BJeLR viability 4, Mtb hypoxia inh 9, ugtP null kill -1, Bead autofluor 4146, Sa RN4220 lethal 2.5 and Mtb hypoxia inh growth 2.
Screening CC(C)NC(=O)CSc1nnc(CNC(=O)OC(C)(C)C)n1C returned BJeLR viability -5, Mtb hypoxia inh 0, PrP UTR inh -19, ugtP null kill 8, Bead autofluor 5947, Sa RN4220 lethal 1.7 and Mtb hypoxia inh growth 2.
`O=C(Nc1cc(Br)ccc1O)c1cc(-c2ccc3c(c2)OCO3)on1` gave BJeLR viability -1, PrP UTR inh -83 and Bead autofluor 5130.
`CN(C(=O)CSc1nnc(-c2ccc(F)cc2)n1C)C1CCS(=O)(=O)C1` (configuration not stated) gave Mtb hypoxia inh 15, PrP UTR inh -24, ugtP null kill 7, Bead autofluor 4201, Sa RN4220 lethal 8.6 and Mtb hypoxia inh growth 9.
For CC1OC(OC2CC(O)[C@]3(CO)C4C(O)C[C@]5(C)C(C6COC(=O)C6)CC[C@]5(O)C4CC[C@]3(O)C2)C(O)C(O)C1O (some centres not stated) the results were Mtb hypoxia inh 0&2, ugtP null kill 0&-6, Sa RN4220 lethal 2.4&1.8 and Mtb hypoxia inh growth -2&1.
CC(=O)N1CCOc2ccc(S(=O)(=O)N3CCC(C(=O)Nc4ccccc4F)CC3)cc21 was read as BJeLR viability 0, Mtb hypoxia inh 5, PrP UTR inh -8, ugtP null kill 8, Bead autofluor 5489, Sa RN4220 lethal 2.2 and Mtb hypoxia inh growth -4.
`Cc1cccc(NCc2ccccc2O)n1` gave BJeLR viability -6, PrP UTR inh -6, ugtP null kill 5, Bead autofluor 3624 and Sa RN4220 lethal -3.1.
`Cc1c(C(=O)N2CCCc3ccccc32)sc2nc(-c3ccccc3)cn12` gave BJeLR viability 0, Mtb hypoxia inh 6, PrP UTR inh -12, ugtP null kill -13, Bead autofluor 5817, Sa RN4220 lethal -11 and Mtb hypoxia inh growth 5.
`CC(=O)N1CCN(c2nc(-c3cccs3)nc3ccccc23)CC1` gave BJeLR viability -1, Mtb hypoxia inh -3, PrP UTR inh 1, ugtP null kill -3, Bead autofluor 3258, Sa RN4220 lethal 0.3 and Mtb hypoxia inh growth 0.
For Cc1cc(/C=C(\C#N)C(=O)O)c(C)n1-c1ccc(Br)cc1 the results were BJeLR viability 3, Mtb hypoxia inh -3, PrP UTR inh -7, ugtP null kill -3, Bead autofluor 4447, Sa RN4220 lethal 1.0 and Mtb hypoxia inh growth 14.
For Cc1ccc(C=NNc2nc(N3CCOCC3)nc(N3CCOCC3)n2)o1 the results were Mtb hypoxia inh 6, ugtP null kill -4, Sa RN4220 lethal 9.4 and Mtb hypoxia inh growth -2.
`O=C(OCc1cc2ccccc2[nH]c1=O)c1cccnc1` gave BJeLR viability 9, PrP UTR inh 2, ugtP null kill 3, Bead autofluor 4776 and Sa RN4220 lethal 5.1.
`CCCN(CCC)C(=S)NC(=O)c1ccc(-c2ccccc2)cc1` gave BJeLR viability -9, Mtb hypoxia inh 2, PrP UTR inh 1, ugtP null kill -6, Bead autofluor 15890, Sa RN4220 lethal 22 and Mtb hypoxia inh growth 3.
COc1cc2ccccc2cc1C(=O)OCC(=O)N(C)c1c(N)n(Cc2ccccc2)c(=O)[nH]c1=O was read as BJeLR viability 6, Mtb hypoxia inh 7, PrP UTR inh -10, ugtP null kill 1, Bead autofluor inconclusive, Sa RN4220 lethal 0.5 and Mtb hypoxia inh growth 11.
COc1ccc(NC2CCCN(C(=O)CCC3=NNC(=O)CC3)C2)cc1 (configuration not stated) was read as BJeLR viability -5, Mtb hypoxia inh -4, PrP UTR inh -19, ugtP null kill -4, Bead autofluor 5096, Sa RN4220 lethal -2.9 and Mtb hypoxia inh growth -16.
For O=C(NCc1n[nH]c(=S)n1-c1ccc(Br)cc1)c1cccs1 the results were BJeLR viability 1, Mtb hypoxia inh -6, PrP UTR inh -11, ugtP null kill 1, Bead autofluor 2075, Sa RN4220 lethal 1.7 and Mtb hypoxia inh growth 3.
O=C(Nc1ccc(O)cc1)C1CCCN1S(=O)(=O)c1ccc(F)cc1 (configuration not stated) was read as BJeLR viability -1, PrP UTR inh 3, ugtP null kill 3, Bead autofluor 6221 and Sa RN4220 lethal -0.8.
Screening COC(=O)c1sc2cc([N+](=O)[O-])cc(SCC(C)C)c2c1N returned BJeLR viability 1, Mtb hypoxia inh 6, PrP UTR inh -1, ugtP null kill 0, Bead autofluor 6894, Sa RN4220 lethal 1.8 and Mtb hypoxia inh growth -4.
`CN(Cc1ccc2nsnc2c1)Cc1nc(Cc2cccc(F)c2)no1` gave BJeLR viability 13, Mtb hypoxia inh 13, PrP UTR inh 1, ugtP null kill 1, Bead autofluor 4550, Sa RN4220 lethal 1.0 and Mtb hypoxia inh growth 9.

Molecules above containing a furan ring, fused or not (four):
Screening CCOc1ccccc1NC(=O)COC(=O)C(Cc1ccccc1)NC(=O)c1ccco1 (configuration not stated) returned Mtb hypoxia inh 6, PrP UTR inh -28, ugtP null kill 1, Bead autofluor 5145, Sa RN4220 lethal 4.9 and Mtb hypoxia inh growth 2.
For O=C(N/N=C/c1ccco1)c1csc2c1CCCC2 the results were BJeLR viability 4, PrP UTR inh -50 and Bead autofluor 4920.
`Cc1occc1-c1nnc(SCC(=O)NCC2CCCO2)n1C` (configuration not stated) gave BJeLR viability -17, PrP UTR inh -24, ugtP null kill 0, Bead autofluor 4865 and Sa RN4220 lethal 2.0.
For Cc1ccc(C=NNc2nc(N3CCOCC3)nc(N3CCOCC3)n2)o1 the results were Mtb hypoxia inh 6, ugtP null kill -4, Sa RN4220 lethal 9.4 and Mtb hypoxia inh growth -2.

Bioassay records deposited in PubChem by several laboratories.
